CtBP-E1A blk – CtBP/E1A binding inhibition | AlphaScreen GST-E1A/His-CtBP binding, 1536-well; active compounds read low; control for the full effect not named in the record | activity change, % (no concentration beside the values) | 0.49% of 340,000 active | AID 651724; in the data active means activity change below about -65%; inconclusive means about -30% to -65%; inactive means above about -30%; further: on the % scale 0 is the no-effect control and ±100 the full control effect
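In 5 uL wells, 23 nL compound meets equimolar GST-E1A and His-CtBP (5X stock 125 nM each) for 2 h, 37 °C. Beads (5X, 50 ug/mL) then 1 h, 37 °C, dark.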
D2 ag – agonists of human D2 dopamine receptor (beta-arrestin); P14416; DiscoveRx PathHunter D2 beta-arrestin, luminescence, 90 min; 100% = 57 uM dopamine signal; activation, % (concentration not given with the values); 0.084% of 360,000 active; AID 624465; in the data active = activation above about 40%; inconclusive = about 15% to 40%; inactive = below about 15%; further: compound concentration not given in the record; the text of the record calls up to 30% inactive
Target sequence (P14416 whole entry, looked up): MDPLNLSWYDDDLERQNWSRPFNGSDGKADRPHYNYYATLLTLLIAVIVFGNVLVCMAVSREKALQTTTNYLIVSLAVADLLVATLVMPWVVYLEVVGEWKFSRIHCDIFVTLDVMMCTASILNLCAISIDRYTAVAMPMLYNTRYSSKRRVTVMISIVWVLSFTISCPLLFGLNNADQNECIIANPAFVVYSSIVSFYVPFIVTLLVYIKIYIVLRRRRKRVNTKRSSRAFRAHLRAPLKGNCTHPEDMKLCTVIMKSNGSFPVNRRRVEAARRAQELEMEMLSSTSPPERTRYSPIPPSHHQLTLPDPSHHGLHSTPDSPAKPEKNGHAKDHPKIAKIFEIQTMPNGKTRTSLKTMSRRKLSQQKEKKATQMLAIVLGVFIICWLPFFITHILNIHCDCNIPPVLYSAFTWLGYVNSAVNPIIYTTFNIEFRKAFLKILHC
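DiscoveRx PathHunter D2 beta-arrestin cells (2,100/well) attached overnight, then compound-stimulated 90 min at 37 C in HBSS/10 mM HEPES/0.1% Tween-20 buffer; beta-galactosidase complementation read by luminescence after 1 h at ambient temperature. Dopamine 57 uM final (EC100) as control.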
PINK1 modulator – modulators of PINK1 expression; PINK1 immunofluorescence, high-content cytometry, 24 h; Potency, µM (top dose mostly 76.6 µM), for the others: top-dose activation (PINK1 increase), usual class: activators; 0.2% of 410,000 active; active = well fitted activation curve with a large enough effect; inconclusive = small, poorly fitted or top-dose-only effect; inactive = flat fitted curve, though single readings scatter; cell line not stated here;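 further: potency means the concentration at half of the fitted maximal effect; % of control where 0% means no effect; nearly all actives have a fitted effect of over 65% in size; a mitochondrial uncoupler was the plate control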
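Decision-based qHTS: stable cells, 24 h exposure to five compound concentrations, CCCP as control. Fixed cells stained for PINK1 plus nuclear, mitochondrial and cell markers, cytometer read.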
TRPML1 ag – human mucolipin-1 channel agonism. activation, % (test concentration not listed). TRPML1-expressing cells, Ca2+ dye fluorescence, FDSS; host cell line not named in the record; reference of the full effect not given here. 0.12% of 410,000 active. Q9GZU1; in the data active = activation above about 50%; inconclusive = about 30% to 50%; inactive = below about 30%; further: 0% is about no effect; the text of the record puts the active cut at 80%
Target sequence (Q9GZU1 whole entry, looked up): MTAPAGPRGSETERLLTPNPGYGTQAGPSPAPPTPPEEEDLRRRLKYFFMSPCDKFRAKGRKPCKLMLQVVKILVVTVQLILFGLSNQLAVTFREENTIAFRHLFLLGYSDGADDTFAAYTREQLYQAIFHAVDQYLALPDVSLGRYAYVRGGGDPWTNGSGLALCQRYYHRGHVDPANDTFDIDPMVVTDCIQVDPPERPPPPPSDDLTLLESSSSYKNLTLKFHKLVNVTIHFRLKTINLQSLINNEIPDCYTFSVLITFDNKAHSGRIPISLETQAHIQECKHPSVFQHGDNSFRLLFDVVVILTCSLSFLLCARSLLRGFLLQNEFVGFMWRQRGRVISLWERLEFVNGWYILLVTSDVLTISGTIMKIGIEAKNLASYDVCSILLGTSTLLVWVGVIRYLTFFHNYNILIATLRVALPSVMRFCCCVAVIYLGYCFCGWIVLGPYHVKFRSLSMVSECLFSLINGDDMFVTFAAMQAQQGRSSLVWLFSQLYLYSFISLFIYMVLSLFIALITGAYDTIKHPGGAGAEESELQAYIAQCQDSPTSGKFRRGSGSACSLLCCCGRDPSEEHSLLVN
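In this qHTS format, compounds were pin-transferred onto Ca8-dye-loaded TRPML1-DL cells induced with Tet overnight, and intracellular Ca2+ fluorescence was recorded kinetically for 110 s after a 10 s baseline. A subsequent 4uM final 54-4 (EC80) addition followed by a second 110 s read served as the antagonist phase.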
Six1-Eya2 blk – Six1/Eya2 interaction inhibition. AID 651725. AlphaScreen GST-Six1/His-Eya2 binding, biochemical; active compounds read low; control for the full effect not named in the record. 0.56% of 360,000 active. Q15475+O00167. activity change, % (test concentration not listed); in the data active = activity change below about -65%; inconclusive = about -30% to -65%; inactive = above about -30%; further: on the % scale 0 is the no-effect control and ±100 the full control effect
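AlphaScreen luminescence read after one hour at 37 °C in darkness. Pin-transferred compounds met GST-Six1 and His-Eya2 protein (5X stock 250 nM/500 nM) plus glutathione donor and Ni-chelate acceptor beads (5X, 50 ug/mL).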
D2 potentiator – positive allosteric modulators of human D2 dopamine receptor | P14416 | DiscoveRx D2 beta-arrestin cells, luminescence, 90 min; 100% = 57 uM dopamine signal | potentiation, % (concentration not given with the values) | 0.23% of 360,000 active | AID 624464; active = potentiation of 50% or more; inconclusive = 30% to 50%; inactive = 30% or less;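 further: compound concentration not given in the record; tested on top of an EC20 dose of dopamine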
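D2 cells co-treated with compound plus 50 nM dopamine (EC20) for 90 min at 37 deg C to detect potentiation. Beta-arrestin recruitment was read as enzyme-fragment luminescence after 1 h at ambient temperature. Full response was set by 57 uM dopamine.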
* = called active by the depositor; ? = inconclusive; / = not tested or not shown; & = joins results of further samples; [ ] = remark or other dose.

SMILES	CtBP-E1A blk	D2 ag	PINK1 modulator	TRPML1 ag	Six1-Eya2 blk	D2 potentiator
CC1CN(C(=O)C(C)Sc2nnnn2C)CC(C)O1 (stereo unspecified)	2	-6.0	2.0%	-0.7	1	-3
CCOC(=O)c1sc2c(c1C)c(=O)c(C(=O)OCC)cn2CC	-1	0.2	0.2%[38.3 µM]	0.2	-3	-2
O=C(O)c1ccccc1NC(=O)C1C2C=CC(C2)C1C(=O)O (stereo unspecified)	-4	1.8	-0.4%	0.5	-8	-2
CC(NC(=O)c1ccccc1)c1nnc(SCC(=O)NC2CCCC2)n1C (stereo unspecified)	-1	2.6	-0.5%	1.4	1	-13
CCC(c1nnnn1Cc1ccccc1)N1CCN(c2ccc(OC)cc2)CC1 (stereo unspecified)	/	0.8	0.8%	0.6	-17	-16
COc1ccc(CCNC(=O)CS(=O)(=O)c2cn(CC(=O)N(C(C)C)C(C)C)c3ccccc23)cc1OC	10	4.6	-0.3%	1.2	-2	8
O=c1cc(NC2CCCCC2)[nH]c(=O)[nH]1	7	-4.0	4.3%	-0.4	-5	-5
CCCc1c(C)nc(N2CCN(c3ccc(F)cc3)CC2)[nH]c1=O	/	-1.4	3.1%	/	6	19
COc1ccc2oc(-c3ccc(C)c(NC(=O)CSc4ccc(Cl)cc4)c3)nc2c1	2	0.4	0.8%	-0.4&0.7	1	2
CCCC1(C(=O)OCC)NC(c2ccc(OC)cc2OC)C2C(=O)N(c3ccc4c(c3)OCCO4)C(=O)C21 (stereo unspecified)	-9	-0.7	0.0%	-0.2	7	2
O=C(Oc1cccc2cccnc12)c1ccc(N2C(=O)C3C4CCC(C4)C3C2=O)cc1 (stereo unspecified)	?	-2.8	1.0%	0.1	-89*	-5
O=C(NC1CCCCC1)C1Cc2ccccc2CN1S(=O)(=O)c1ccc(F)cc1 (stereo unspecified)	19	0.5	-5.0%[38.3 µM]	-0.1	0	-18

Retrieved one by one from the list above:
SMILES	CtBP-E1A blk	D2 ag	PINK1 modulator	TRPML1 ag	Six1-Eya2 blk	D2 potentiator
O=C(Oc1cccc2cccnc12)c1ccc(N2C(=O)C3C4CCC(C4)C3C2=O)cc1 (stereo unspecified)	?	-2.8	1.0%	0.1	-89*	-5
CC1CN(C(=O)C(C)Sc2nnnn2C)CC(C)O1 (stereo unspecified)	2	-6.0	2.0%	-0.7	1	-3
O=C(NC1CCCCC1)C1Cc2ccccc2CN1S(=O)(=O)c1ccc(F)cc1 (stereo unspecified)	19	0.5	-5.0%[38.3 µM]	-0.1	0	-18
CC(NC(=O)c1ccccc1)c1nnc(SCC(=O)NC2CCCC2)n1C (stereo unspecified)	-1	2.6	-0.5%	1.4	1	-13
CCCc1c(C)nc(N2CCN(c3ccc(F)cc3)CC2)[nH]c1=O	/	-1.4	3.1%	/	6	19

The results go on:
SMILES	CtBP-E1A blk	D2 ag	PINK1 modulator	TRPML1 ag	Six1-Eya2 blk	D2 potentiator
CC(C)(C)[C@H]1COC(=O)[C@@H](Cc2ccc(F)cc2)CC/C=C/C[C@@H](CC(=O)N[C@@H](CO)Cc2ccccc2)C(=O)N1	/	-1.4	13%	-0.3	-5	7
CC(C)(C)[C@@H]1COC(=O)[C@H](Cc2ccc(F)cc2)C/C=C\C[C@@H](CC(=O)NCCO)C(=O)N1	4	-1.1	0.2%	-0.3	13	-7
CCn1c(SCC(=O)NC2CCCCC2)nnc1-c1cccs1	-1	-3.0	-2.4%[38.3 µM]	-0.7	1	-8
Cc1ccnc(NC(=O)CN2C(=O)NC(C)(c3ccc4ccccc4c3)C2=O)c1 (stereo unspecified)	5	-1.8	-1.7%	0.6	3	-15
CCN(c1ccccc1)S(=O)(=O)c1ccc(OC)c(NC(=O)C2CCC2)c1	-8	-0.5	-0.2%	2.0	2	-13
Cc1nc2oc3c(NCC4CCCO4)ncnc3c2c2c1COC(C)(C)C2 (stereo unspecified)	0	-0.5	/	-0.2	5	-10
CN(CC(=O)Nc1ccc(F)c(F)c1F)C(=O)CCc1nc2sc3c(c2c(=O)[nH]1)CCCC3	-5	-4.2	7.9%	0.4	-6	2
CCS(=O)(=O)c1nc(S(=O)(=O)c2ccc(C)cc2)c(N2CC(C)OC(C)C2)s1 (stereo unspecified)	/	0.5	0.0%	-0.1	3	1
Cn1c(Cn2cnc3ccccc32)nnc1SCc1ccccc1	-2	0.7	0.5%	0.0	10	3
COc1cccc(NC(=O)c2cccc(NC(=O)c3ccco3)c2)c1	-8	-1.5	1.8%	-0.5	-12	-5
CCc1ccc(C(C(=O)NC2CCCC2)N(C(=O)/C=C/C(=O)Nc2cc(C)on2)c2ccccc2C)cc1 (stereo unspecified)	/	-2.4	5.3%	1.1	0	-6
COc1ccc(NCC(=O)Nc2ccc(Cl)cc2C)c(OC)c1	-17	-2.4	8.7%[38.3 µM]	0.1	-27	-14
O=C(Nc1ccc2c(c1)OCCO2)C1CCN(S(=O)(=O)c2cccs2)CC1	-6	3.8	3.9%[38.3 µM]	0.0	-1	-8
CCN(CC)CCCC(C)NC(=O)c1cccc(S(=O)(=O)N2CCc3ccccc32)c1 (stereo unspecified)	4	-3.9	-1.8%	0.5	1	-15
CCN(CC(=O)Nc1c(F)cccc1F)C(=O)c1ccc(S(=O)(=O)NCc2ccco2)cc1	1	-3.1	5.4%	-0.8	-2	-3
COc1ccc(NC(=O)C2CCCN2C(=O)Nc2ccc(OC)cc2)cc1 (stereo unspecified)	-7	-0.1	1.9%	0.5	3	-8
Cc1cc(C)c(OCC(=O)N(C)CC(=O)Nc2ccc(N3CCOCC3)cc2)c(C)c1	4	-3.5	1.4%	0.0	-4	-34
COc1ccc2nc(NC(=O)CSc3nnc(-c4ccoc4C)n3C)sc2c1	-11	-4.6	-0.5%	-0.9	-11	-6
COCCCN1C(=O)C(=O)/C(=C(/O)c2ccc(S(=O)(=O)N3CCOCC3)cc2)C1c1ccc(Cl)cc1 (stereo unspecified)	/	-3.0	-1.5%	0.3	9	-6
COc1cccc(C(=O)c2c(C)c(CCC#N)n3ccccc23)c1	-19	3.9	1.0%	1.0	-3	-2
CCC(C)NC(=O)N[C@@H](CCSC)C(=O)OC (stereo partly specified)	-1	-4.1	4.7%[38.3 µM]	0.0	1	-1
O=C(CCn1cccc1)NCCc1ccc(Cl)cc1	-5	-3.1	-2.3%	0.1	-22	-11
C=CCC[C@@H](Cc1ccc(F)cc1)C(=O)OC[C@@H](Cc1ccccc1)NC(=O)[C@H](CC=C)CC(=O)NCCO	-12	0.1	-1.0%	0.4	6	/
CCn1c(=O)n(CC)c2cc(N3CCCC3)c(NC(=O)c3c(F)cccc3F)cc21	/	-2.8	0.2%	-0.1	-19	-6
Cc1cc(=O)n2nc(N3CCC(C(=O)NCc4ccc(F)cc4)CC3)sc2n1	?	-3.0	-1.0%&-0.1%	0.8&-0.8	?	-6
Cc1ccc(N2N=C(c3ccc(Br)cc3)CCC2=O)cc1	-7	-0.5	-2.2%	-0.2	8	8
COc1ccc(C)cc1NC(=O)COC(=O)c1ccc([N+](=O)[O-])o1	2	0.8	0.4%	0.3	5	14
O=C(CN1CCN(S(=O)(=O)c2ccccc2)CC1)Nc1ccc(Cl)c([N+](=O)[O-])c1	-4	-2.3	2.5%	-0.4	-17	-10
O=C(/C=C/c1ccccc1)NCCc1nc2ccccc2[nH]1	-10	-6.3	1.4%	2.1	-2	-4
Cn1c(=O)c2c(nc(Oc3ccc4c(c3)OCO4)n2Cc2ccc(Br)cc2)n(C)c1=O	1	-1.1	1.1%	0.5	11	4
O=C(NC(=S)Nc1ccccc1Cl)c1cncc(Br)c1	-1	2.3	5.7%	0.1	-17	-17
O=C(c1cc(N2CCCCC2)nc2ccccc12)N1CCOCC1	-7	-2.0	-2.1%[38.3 µM]	0.5	2	-7
Cc1cccc(N=[N+]([O-])c2cccc(C)n2)n1	2	-0.1	0.0%	-0.2	-1	/
COc1ccc(/C=N\N=C2/SC(CC(=O)O)C(=O)N2c2ccc(O)cc2)cc1 (stereo unspecified)	0	0.1	0.9%[38.3 µM]	0.1	1	1
Cc1occc1C(=O)Nc1sc2c(c1C(N)=O)CCC(C(C)(C)C)C2 (stereo unspecified)	-1	-0.9	5.3%[38.3 µM]	-0.3	0	-7
Cc1ccc([N+](=O)[O-])cc1-c1ccc(/C=N/NC(=O)CN2CCOCC2)o1	-14	-2.1	1.7%	0.8	-9	-11
COc1ccc(-n2ccc(=O)c(C(=O)O)n2)cc1	-11	-1.5	2.8%	0.2	-1	-11
O=C(O)c1cc(S(=O)(=O)Nc2cccc3ccccc23)c(Cl)cc1Cl	-9	2.9	2.1%	-1.1	3	6
Cc1ccc(C(=O)Nc2ccc3c(c2)OCO3)cc1S(=O)(=O)N1CCOCC1	?	-3.2	-0.2%	-0.1	?	0
Cc1cccc(N2C(=O)CC(c3ccc(F)cc3)C3=C2COC3=O)c1 (stereo unspecified)	6	1.3	-0.7%&0.7%	-0.1&1.5	1	-1
COc1ccc(S(=O)(=O)N2CCN(C3CCN(Cc4ccccc4)CC3)CC2)cc1	-4	-3.0	-0.6%	-0.7	0	-15
COC(=O)NN=C1CCC(c2ccccc2)CC1 (stereo unspecified)	9	14	0.8%	0.8	9	1
C=CCN1C(=O)c2ccc(C(=O)N3CCN(S(=O)(=O)c4cc(C)ccc4C)CC3)cc2C1=O	-21	0.5	-0.2%	0.4	-1	-15
CCCn1c(=O)c2ccccc2n2c(SCCOc3ccccc3F)nnc12	-3	-2.9	2.1%	1.2	0	3
Cc1ccc(S(=O)(=O)N2CCN(C(=O)CSc3nc4ccccc4c(=O)[nH]3)CC2)cc1	-6	-0.8	?	0.3	8	-12
C=CCNc1n[nH]c(=S)s1	3	5.0	3.3%	-0.3	-4	-15
CCOC(=O)C1=C(COC(=O)COc2ccccc2C(C)C)NC(=O)NC1C (stereo unspecified)	-2	0.3	3.7%	2.8	1	0
Nn1c(-c2ccccc2)nc2cc(Cl)ccc2c1=O	2	-0.6	2.6%	-0.3	5	-3
CC(C)C(=O)n1nc(-c2cccnc2)nc1NCc1ccc(F)cc1	8	1.6	2.1%	-1.0	1	-3
Cc1ccc(S(=O)(=O)NCc2ccccc2C)cc1	/	-3.9	1.6%	/	9	2
CCC1(c2ccccc2)NC(=O)N(CC(=O)Nc2cc(S(=O)(=O)N3CCCCC3)ccc2OC(C)C)C1=O (stereo unspecified)	14	1.3	0.0%	2.9	10	3
COc1cccc(/C=C/C(=O)NNC(=O)c2ccccc2)c1OC	6	-2.9	1.9%	-0.7	-4	-11
CC(=O)C1=C(C)Nc2ncnn2C1c1ccc(F)cc1 (stereo unspecified)	/	-3.1	1.4%	/	23	4
Cc1ccc(C2C3=C(CCCC3=O)Nc3nc(SCC(=O)NCc4ccco4)[nH]c(=O)c32)cc1 (stereo unspecified)	-5	-3.6	0.8%	0.4	2	-5
COCC(=O)N(C)C[C@H]1Oc2ncc(C#C[C@H](C)O)cc2C(=O)N([C@@H](C)CO)C[C@H]1C	?	-9.2	2.9%	-0.2	-11	5
CC(C(=O)NCc1ccccc1Cl)N1C(=O)c2ccccc2C1=O (stereo unspecified)	-4	-3.9	-1.3%	1.4	43	-2

Assay outcomes (PubChem)
